# PINK1 expr mod – PINK1 expression modulation | PINK1 immunofluorescence, high-content cytometry, 24 h | Potency, µM (highest dose often 76.6 µM), inactives show top-dose activation (PINK1 increase), hits mostly activators | actives 0.2% (n = 410,000); active = well fitted activation curve with a large enough effect; inconclusive = small, poorly fitted or top-dose-only effect; inactive = flat fitted curve, though single readings scatter; cell line not stated here;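 further: % of control where 0% means no effect; nearly all actives have a fitted effect of over 65% in size; a mitochondrial uncoupler was the plate control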
#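 PINK1 protein, normally rapidly degraded, was detected by immunofluorescence after 24 hour compound treatment of a stable cell line. Titration data (5 concentrations) came from laser-scanning cytometry, with CCCP-treated wells as controls.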
# Numbers without * were called inactive; ? = inconclusive. Potency means the concentration at half of the fitted maximal effect. These rows are one share of the data; count on the stated rates, not on these rows.
SMILES,PINK1 expr mod
Cn1cc(S(=O)(=O)c2ccccc2)c(=O)c2cc(F)c(N3CCN(c4ccccc4)CC3)cc21,1.2%
CCOc1ccccc1Nc1sc(C(=O)c2ccccc2)c(N)c1C(=O)Nc1ccccc1,7.4%
O=C(COc1ccc2oc3c(c2c1)CCCC3)Nc1ccc(Cl)cc1,6.2%
Cc1oc(-c2ccccc2)nc1Cn1c(SCc2cccc(C(F)(F)F)c2)nc2cccnc21,0.3%
CCOc1ccccc1NC(=O)c1ccc2c(c1)CCN2S(=O)(=O)c1ccc(C)cc1,0.5%
Cc1ccc(-c2c(CN3CCN(c4cccc(C(F)(F)F)c4)CC3)csc2C)cc1,2.3%
Cc1ccc(C)c(NC(=O)C2CCCN(S(=O)(=O)c3cn(C)cn3)C2)c1 (stereo unspecified),0.1%
CCc1cccc(CC)c1NC(=O)CCS(=O)(=O)c1ccc2c(c1)CCN2C(C)=O,0.7%
COc1ccc(C(CC(=O)NCc2ccc(Cl)cc2)N2Cc3ccccc3C2=O)cc1OC (stereo unspecified),0.7%
Cc1ccc(NC(=O)c2cc(S(=O)(=O)N3CCCC(C)C3)cn2C)c(Br)c1 (stereo unspecified),4.7%
Cc1cnccc1/C=C/c1ccc(N)cc1,3.3%
COc1ccc(C(=O)C[n+]2cccc3cc(Cl)ccc32)cc1,10.5%
Cc1ccc2c(c1)N(C(=O)N1CCC(C(=O)NC3CCCCCC3)CC1)CCO2,0.1%
Cc1cccc(C(=O)Nc2nc(-c3ccc(Br)cc3)ns2)c1,1.2%
NC(=O)[C@@H]1CCCN1C(=O)c1cc(NC(=O)c2ccccc2)cc2ncn(C3CCCC3)c12,0.9%
Cc1sc2ncn(CC(=O)N3CCN(c4cccc(Cl)c4)CC3)c(=O)c2c1S(=O)(=O)N1CCC(C)CC1,1.0%
COCCNC(=O)c1ccc2c(c1)NC(=O)C(CS(=O)(=O)Cc1ccc(F)cc1Cl)N2 (stereo unspecified),1.7%
Cc1ccc(-c2csc(NC(=O)C3CC(=O)N(c4ccc5c(c4)OCCO5)C3)n2)o1 (stereo unspecified),2.0%
CCN(CC)CCNC(=O)C1CCN(c2nn3cc(-c4ccc(F)cc4)nc3s2)CC1,8.3%
COc1cc(C(=O)Oc2c(Sc3ccc(C)cc3)c(C)nn2-c2ccccc2)cc(OC)c1OC,-1.0%
COC(=O)c1ccc(NC(=O)c2cc3cc(C)ccc3n2C)cc1,1.5%
COc1cc2nc(SCC(=O)Nc3c(C)cc(C)cc3C)n3nc(CCn4c(C)nc5ccccc54)nc3c2cc1OC,15.7%
COc1cc2[nH]c(=O)n(Cc3ccc(C(=O)N4CCN(c5ccc(Cl)cc5)CC4)cc3)c(=O)c2cc1OC,1.9%
CCOC(=O)N1CCc2c(sc(NCc3sccc3C)c2C(=O)Nc2ccc(OC)cc2OC)C1,3.2%
COCCn1c(C)cc(O)c(C(c2ccc(OC)cc2)N2CCCCC2)c1=O (stereo unspecified),1.1%

# Some values from above:
# Reading for COCCn1c(C)cc(O)c(C(c2ccc(OC)cc2)N2CCCCC2)c1=O (stereo unspecified) in PINK1 expr mod: 1.1%
# Reading for COc1cc(C(=O)Oc2c(Sc3ccc(C)cc3)c(C)nn2-c2ccccc2)cc(OC)c1OC in PINK1 expr mod: -1.0%
# Reading for CCc1cccc(CC)c1NC(=O)CCS(=O)(=O)c1ccc2c(c1)CCN2C(C)=O in PINK1 expr mod: 0.7%
# Reading for Cc1ccc(-c2csc(NC(=O)C3CC(=O)N(c4ccc5c(c4)OCCO5)C3)n2)o1 (stereo unspecified) in PINK1 expr mod: 2.0%
# Reading for CCOC(=O)N1CCc2c(sc(NCc3sccc3C)c2C(=O)Nc2ccc(OC)cc2OC)C1 in PINK1 expr mod: 3.2%
# Reading for Cc1ccc2c(c1)N(C(=O)N1CCC(C(=O)NC3CCCCCC3)CC1)CCO2 in PINK1 expr mod: 0.1%

# Next section.
SMILES,PINK1 expr mod
CCC(C(=O)Nc1cc(F)ccc1F)n1nc(-c2cc(C)ccc2C)ccc1=O (stereo unspecified),0.0%
CC(C)(C)c1ccc(C(=O)NCC(c2cccs2)S(=O)(=O)c2ccc(F)cc2)cc1 (stereo unspecified),0.1%
Cc1ccccc1-c1nnc(CN2CCN(c3cc(Cl)ccc3C)CC2)o1,-1.2%
CCn1nc(-c2ccccc2)c(-c2ccccc2)c(C(=O)OCCOC)c1=O,-0.7%
CCc1ccc(NC(=O)CN2C(=O)CCSc3ccc(S(=O)(=O)N4CCCC4)cc32)cc1,1.4%
CCOC(=O)c1c(S(=O)(=O)NCC(=O)Nc2cccc(CC)c2)c(C)n(C)c1C,6.6%
O=c1[nH]c(C2CCCN(S(=O)(=O)c3ccccc3Cl)C2)nc2c1nnn2Cc1ccc(OC(F)(F)F)cc1 (stereo unspecified),-1.1%
COc1ccc(NC(=O)CN2C(=O)C(c3ccc(C)cc3)=NC23CCCCCC3)cc1Cl,2.3%
CCn1cc(C(=O)OCC(=O)Nc2cccc(C(C)=O)c2)c(=O)c2ccc(C)nc21,-0.4%
Cc1cc(C)c(NC(=O)CSc2ccc(-c3sc(-c4ccccc4)nc3C)nn2)c(C)c1,1.4%
CCOc1cc2c(cc1OCC)C(CC(=O)O)N(C(=O)Nc1ccc(Br)c(C)c1)CC2 (stereo unspecified),-0.1%
CCCCSCCCNC(=O)C1CCN(Cc2nc(-c3cccc(Br)c3)oc2C)CC1,2.0%
CC(=O)c1cc(-c2ccccc2)n(CCC(=O)Nc2nc3c(C)cccc3s2)c1C,-0.7%
Cc1ccc(NC(=O)CS(=O)(=O)c2nc(-c3ccc(C)cc3)cn2-c2ccc(C)cc2)cc1,-1.6%
O=C(c1cn(C2CCCN(Cc3cc(Cl)ccc3O)C2)nn1)N1CCCCC1 (stereo unspecified),1.2%
Cc1cc2c(cc3c(SCC(=O)Nc4ccc(Cl)cc4F)nncn32)o1,1.8%
Cc1ccc(C(=O)Nc2cccc(-c3nc(CNC(=O)c4ccc(F)cc4Cl)c(C)o3)c2)s1,-0.3%
Cc1cc(C)c2c(NC(=O)c3ccccc3Cl)c(C(=O)Nc3ccc(C)c(C)c3)sc2n1,1.2%
CCc1ccc(S(=O)(=O)c2cn(CC(=O)Nc3ccc(C)cc3)c3ccccc3c2=O)cc1,1.3%
Cc1ccccc1NC(=O)c1c(C)oc2ccc(O)c(CN(C)Cc3ccccc3)c12,-0.1%
Cc1cccc(NC(=O)c2cc3c(=O)n4ccccc4nc3n2C)c1C,13.6%
Cc1cccc(-c2nn3c(=O)cc(CN4CCN(S(=O)(=O)c5ccc(Cl)cc5)CC4)nc3s2)c1,0.8%
Cc1cc2c(cc1S(=O)(=O)N(CCN(C)C)Cc1ccccc1)OCC(=O)N2,-1.4%
CCOC(=O)c1cc(S(=O)(=O)N2CCN(c3ccc(OC)cc3)CC2)[nH]n1,0.6%
COc1cccc(CNCc2c(C(=O)O)n(Cc3ccc(C)cc3)c3cc(C)ccc23)c1OC,1.3%

# The results go on.
SMILES,PINK1 expr mod
Cc1ccccc1CN1C(=O)c2ccccc2Sc2ccc(C(=O)NCc3ccccc3)cc21,0.6%
CSc1nc(-c2ccc(F)cc2)nc2c1Cc1c(CO)cnc(C)c1O2,-0.7%
COc1ccc(-n2ncc(C(=O)Nc3ccc4c(c3)OCCO4)c2C2CCN(C(=O)OC(C)(C)C)CC2)cc1,-1.6%
CC(C)CN(CCNC(=O)c1cc(=O)[nH]c2ccc(S(=O)(=O)N3CCCCCC3)cc12)CC(C)C,-0.4%
COc1cccc(/C=C/c2nc(C#N)c(N3CCCCC3)o2)c1,0.4%
CCCNc1ncnc2c1c(-c1ccccc1)cn2-c1ccccc1,0.5%
Cc1cn(C)c(CC(=O)Nc2ccc(F)cc2Cl)c1C(=O)O,0.2%
O=C(Nc1ccc2c(c1)N(C1CCCC1)C(=O)c1ccccc1S2)c1ccccc1F,1.1%
Cn1c(=O)oc2cc(S(=O)(=O)N3CCCC(C(=O)N4CCN(c5ccccc5F)CC4)C3)ccc21 (stereo unspecified),1.8%
CN(C)c1ccc(/C=C/c2cc[n+](C)c3ccc4ccccc4c23)cc1,4.47µM*
CCC(=O)N[C@@H]1c2ccccc2C2(CCN(Cc3cnc(N(C)C)s3)CC2)[C@H]1OC,-1.3%
CCOC(=O)c1ccc(N2CCN(c3ccccc3F)CC2)c(NC(=O)Nc2ccc(Cl)c(Cl)c2)c1,1.1%
CCCCn1c(=O)nc2n(-c3ccc(F)cc3)c3ccccc3cc-2c1=O,1.0%
CN(C)c1ccc(/C=C/c2cnnc3ccccc23)cc1,?
COc1ccc(C2Nc3ccccc3-c3nnc(SC)nc3O2)cc1C (stereo unspecified),1.6%
Cc1ccc(C(=O)Nc2ccc3c(c2)N(C)C(=O)c2ccccc2S3)cc1F,3.0%
CC1CCN(S(=O)(=O)c2ccc3c(ccc(=O)n3CC(=O)NCc3ccc(Cl)cc3)c2)CC1,-4.4%
O=C(Cn1nc2c(cc1=O)CCCC2)NCc1ccccc1Cl,0.5%
Cc1ccc(CCNC(=O)c2ccc(CSc3nc4ccncc4n3Cc3ccc(F)cc3)cc2)cc1,0.6%
CSc1nnc2c(n1)OC(c1cccc(O)c1Cl)Nc1ccccc1-2 (stereo unspecified),0.4%
CCN(C(=O)Cn1c(=O)n(Cc2ccccc2)c(=O)c2c1c1cc(OC)ccc1n2C)c1ccccc1,-0.5%
CC(=O)N1CCN(c2csc3ccc(Br)cc3c2=O)CC1,-0.8%
COc1ccc(NC(=O)Cn2c(=O)n(-c3ccccc3)c(=O)c3c4c(sc32)CCCC4)c(OC)c1,2.2%
CCCCCCCCCCCCCCCCOC(=O)N1CCN(/[N+]([O-])=N/Oc2ccc([N+](=O)[O-])cc2[N+](C)=O)CC1,0.7%
O=C(NCc1ccccc1Cl)c1ccc2c(c1)ncn2-c1cccc(F)c1,-0.6%

# 5 of these compounds, set out differently.
SMILES | PINK1 expr mod
Cc1ccc(C(=O)Nc2ccc3c(c2)N(C)C(=O)c2ccccc2S3)cc1F | 3.0%
CCCCn1c(=O)nc2n(-c3ccc(F)cc3)c3ccccc3cc-2c1=O | 1.0%
Cc1ccc(NC(=O)c2cc(S(=O)(=O)N3CCCC(C)C3)cn2C)c(Br)c1 (stereo unspecified) | 4.7%
COCCn1c(C)cc(O)c(C(c2ccc(OC)cc2)N2CCCCC2)c1=O (stereo unspecified) | 1.1%
CC1CCN(S(=O)(=O)c2ccc3c(ccc(=O)n3CC(=O)NCc3ccc(Cl)cc3)c2)CC1 | -4.4%

# More compounds follow:
SMILES,PINK1 expr mod
Brc1cccc[n+]1CCCC[n+]1ccccc1Br,1.2%
CN(Cc1cnc2ccccn12)C(=O)c1cc(NC(=O)c2ccccc2)cc2ncn(C3CCCC3)c12,1.0%
CC(=O)c1nc(N2CCN(S(=O)(=O)c3ccc(C)cc3)CC2)c2ccccc2n1,0.5%
Cc1ccc(C2=CC(c3ccc(Cl)cc3)n3nc(-c4ccc(C)cc4)nc3N2)cc1 (stereo unspecified),-0.4%
COc1cccc(Nc2sc(C(=O)c3ccc(Cl)cc3)c(N)c2C(=O)NCc2ccc(C)cc2)c1,22.9%
Cc1nc(-c2ccccc2)sc1-c1ccc(SCC(=O)NCc2ccc(F)cc2)nn1,-0.7%
CCOC(=O)C1CCCN(C(=O)Cn2ncn3c(cc4sc(CC)cc43)c2=O)C1 (stereo unspecified),0.4%
COC(=O)CN1C(=O)CSc2ccc(S(=O)(=O)Nc3cc(C)ccc3C)cc21,1.7%
COc1ccc(CNC(=O)c2cccn2-c2nnc(N3CCCCC3)s2)c(OC)c1,-0.4%
COc1ccc(C2Nc3ccccc3-c3cc(C)nn32)cc1OC (stereo unspecified),0.1%
CCOC(=O)C1CCC(CN(Cc2ccc(OC)cc2)S(=O)(=O)c2ccc(F)c(C(=O)Nc3cc(Cl)ccc3OC)c2)CC1 (stereo unspecified),1.3%
COc1ccc(CNC(=O)c2cc3c(-c4ccccc4F)nn(C)c3s2)c(OC)c1,0.8%
Cc1ccc(NC(=O)Nc2nnc(SCC(=O)N3CCCCC3)s2)cc1,-0.8%
CC(C)CCOc1ccc(Cn2c(=O)sc3ccccc32)cc1,-0.4%
Cc1nc2c(C(=O)NCCc3ccc(Cl)cc3)c[nH]n2c(=O)c1Cc1ccc(Cl)cc1,-0.2%
COc1ccccc1C(=O)N[C@@H]1c2ccccc2C2(CCN(Cc3nc(C(C)C)cs3)CC2)[C@H]1O,-1.2%
CC(=O)c1cc(-c2ccc(F)cc2)n(CCC(=O)NCc2ccccc2C)c1C,-0.1%
COc1cccc(Nc2nc3ccc(C(=O)c4ccccc4)cc3n3c(C)nnc23)c1,-1.7%
Cc1ccc(-n2ncc(C(=O)NCc3ccccc3C)c2-n2cccc2)cc1,2.0%
CCOc1cc(C(=O)Nc2c(NC)c3ccccc3oc2=O)cc(OCC)c1OCC,-0.1%
Cc1c(NC(=O)C(F)(F)F)ccc2nc3c(=O)n(C)c(=O)n(C)c3nc12,-0.8%
CCOc1ccc2nc(C)cc(Nc3ccccc3OCC)c2c1,?
Cc1c2ccccc2cc[n+]1C,0.5%
CN(C)CCNC(=O)C1CCN(Cc2cc3ccccc3n2Cc2ccccc2)CC1,-2.1%
Cc1cccc(C)c1NC(=O)Cn1c(SCC(=O)NCc2ccccc2)nc2ccccc21,-0.7%

# The listing continues:
SMILES,PINK1 expr mod
O=C(c1ccc2c(c1)N(Cc1cccc(Cl)c1)C(=O)c1ccccc1S2(=O)=O)N1CCC(Cc2ccccc2)CC1,2.0%
Cc1nnc(N2C(=O)c3oc4ccccc4c(=O)c3C2c2cccc(OCCC(C)C)c2)s1 (stereo unspecified),1.0%
COc1ccc(-c2noc(-c3ccc(N4CCN(c5ccccc5)CC4)c([N+](=O)[O-])c3)n2)cc1,1.4%
CC1=C(c2ccc(F)cc2)S(=O)(=O)N=C1N1CCC(C(=O)NCCc2ccccc2)CC1,-0.1%
CCCCN(CC)C(=O)c1cc2c(=O)n3cccc(C)c3nc2n1C,0.2%
CNc1ccc(C=O)cc1I,0.3%
COc1ccc(N2CCN(C(CNC(=O)C(=O)NCc3cccnc3)c3cccnc3)CC2)cc1 (stereo unspecified),4.0%

# Screening results as filed in PubChem.
